Bioassay records: PubChem BioAssay, National Center for Advancing Translational Sciences (NCATS)
GLA inh pH 4.5: blocks human alpha-galactosidase A at pH 4.5; 230,000 tested, under 10 active; purified enzyme, 4-MU-alpha-Gal fluorescence, pH 4.5; activity change, negative = inhibition, % at 105 µM; P06280; inconclusive = small, poorly fitted or top-dose-only inhibition, or a rising curve; inactive = flat fitted curve, though single readings scatter; no compound was filed as active;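 also: 0% = full activity with enzyme and -100% = basal without enzyme; dose as in the result columns while the protocol names 77 µM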
Target sequence (P06280 whole entry, looked up): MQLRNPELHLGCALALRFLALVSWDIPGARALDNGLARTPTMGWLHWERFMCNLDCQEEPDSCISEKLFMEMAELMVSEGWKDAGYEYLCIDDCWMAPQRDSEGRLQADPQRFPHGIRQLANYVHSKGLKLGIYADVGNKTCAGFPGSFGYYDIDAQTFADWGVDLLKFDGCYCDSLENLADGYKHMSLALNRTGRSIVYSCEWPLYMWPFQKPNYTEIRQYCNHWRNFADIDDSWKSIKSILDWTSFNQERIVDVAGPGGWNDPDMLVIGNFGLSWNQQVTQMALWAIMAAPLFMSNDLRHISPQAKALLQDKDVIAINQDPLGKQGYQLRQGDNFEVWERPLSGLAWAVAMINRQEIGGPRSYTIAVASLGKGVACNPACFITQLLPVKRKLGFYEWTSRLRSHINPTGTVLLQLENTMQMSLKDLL
Rango release inh: inhibitors of RanGTP-induced Rango-importin beta complex dissociation | Biochemical FRET Rango-importin beta, RanGTP-induced dissociation | Potency, µM (titrated, usually from 46.1 µM), for the others: at the top dose activity change, negative = inhibition | 340,000 tested, 0.071% active; active means falling FRET ratio curve, often poorly fitted, with flat reads before Ran was added; inconclusive means other falling curves, or compound fluorescence or quenching; inactive means flat or rising ratio curve;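 also: potency is read from the fitted curve at half-maximal effect; % of control where 0% means no effect; nearly all actives have a fitted effect of over 45% in size; -100% = wells without RanGTP and RCC1; the record marks most hits as doubtful in a second field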
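Quantitative HTS using a FRET biosensor: 0.1 uM Rango, 0.25 uM importin beta, 0.6 uM Ran, 2 mM GTP, 0.2 uM RCC1 final, PBS with DTT, Tween-20 and BSA. Post-read taken 45 min after Ran addition.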
miR-21 FLuc: miR-21 reporter, rising signal | HeLa miR-21 FLuc reporter, luciferase, 48 h | Potency, µM (titrated, usually from 38.3 µM), for inactives: at the highest dose reporter change, positive = more light | 340,000 tested, under 10 active | AID 2288; active = well fitted rising curve with a large enough effect; inconclusive = small, poorly fitted or top-dose-only effect; inactive = no such curve, though single readings can be large or run the other way;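 also: % of control where 0% means no effect; miR-21 action dims this reporter so a rising signal means less miR-21 action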
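HeLa cells stably expressing CMV-driven firefly luciferase with a downstream miR-21 binding sequence, endogenously expressing miR-21, were treated with titrations (up to about 40uM final) for 48 hours at 37 degree Celsius. Luciferase luminescence was read after lysis.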
Rango-impB inh: inhibitors of Rango-importin beta complex formation; 340,000 tested, 0.031% active; Potency, µM (doses to about 92.2 µM), inactives show top-dose inhibition of complex formation; Rango CFP/YFP FRET sensor + importin beta, 45 min; Q14974; AID 540263; active = rising FRET ratio curve, often small or poorly fitted; inconclusive = mostly compound fluorescence or quenching in the first reads; inactive = flat curves in all reads;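 also: potency is read from the fitted curve at half-maximal effect; 0% = DMSO wells and 100% = buffer wells lacking importin beta; nearly all actives have a fitted effect of over 15% in size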
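Inhibition scored from the CFP 486 nm/YFP 530 nm FRET ratio 45 min after adding 0.125 microM importin beta to 50 nM Rango biosensor preincubated 5 min with compound (room temperature, PBS with DTT, Tween-20, BSA). No-importin wells as positive control.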
* = called active by the depositor; ? = inconclusive; / = no result given; & = joins results of further samples; [ ] = another dose, or the depositor's remark. Not all compounds are listed. The share of hits here may be higher or lower than overall.

canonical_smiles	Rango release inh	GLA inh pH 4.5	miR-21 FLuc	Rango-impB inh
COc1ccc(C(=O)N2CCOC2CNC(=O)C(=O)NCCc2ccc(OC)c(OC)c2)cc1 (stereo unspecified)	11%	/	1%	0.2%
O=C(CSc1nnc(SCc2ccccc2)s1)N/N=C/C=C/c1ccco1	-10%	-8	-1%	-1.6%
CC(OC(=O)CN1C(=O)NC2(CCCCC2C)C1=O)c1ccccc1 (stereo unspecified)	-21%	/	/	0.2%
COc1cccc(OC)c1OCCNC(C)(C)C	0%	0	-1%	0.6%
CC(C)(C)OC(=O)N1CCC[C@H]1c1nnc(SC/C=C/c2ccccc2)o1	1%	-3	2%	3.0%
COc1ccc(NC(=O)CN(C)CC(=O)Nc2ccc(N3CCOCC3)cc2)c([N+](=O)[O-])c1	14%	1	-8%	-0.4%
COc1cc(C(C)=O)ccc1OCCN1CCC(Cc2ccccc2)CC1	2%	-5	-7%	-0.2%
COC(=O)CN(c1ccccc1F)S(=O)(=O)c1ccccc1	2%	-4	0%	2.5%
CCN(CC1COc2ccccc2O1)C(=S)NCCCN(C)C (stereo unspecified)	-2%	1	-7%	8.9%
OC1(c2ccccc2)CC(c2ccccc2)c2ccccc2O1 (stereo unspecified)	3%	/	/	0.8%

Going on with the list.
canonical_smiles	Rango release inh	GLA inh pH 4.5	miR-21 FLuc	Rango-impB inh
CCSc1nnc(NC(=O)c2cc(C)nc3ccccc23)s1	21%	2	-7%	2.2%
COc1ccc(CCNC(=O)C2CCC(C(C)(C)C)CC2)cc1OC (stereo unspecified)	0%	/	13%	-3.3%
CCCCN(C(=O)c1ccc(C)cc1)c1c(N)n(CCC)c(=O)[nH]c1=O	-11%	/	10%	-0.8%
COc1cccc(C(=O)c2c[nH]c(C(=O)NCc3cccnc3)c2)c1	19%	8	14%	-2.6%
C#CCOCCOCCOCCNc1nc(N2CCN(C(=O)[C@H](C)n3cc(CCC(=O)O)nn3)CC2)nc(N2CCN(C(=O)[C@H](C)n3cc(CCC(=O)O)nn3)CC2)n1	1%	/	/	-0.7%
O=C(NNc1c(F)c(F)cc(F)c1F)C1CCN(S(=O)(=O)c2ccccc2F)CC1	2%	/	/	-4.7%
O=C(O)/C=C/C(=O)Nc1ccc(OC(F)(F)F)cc1Br	-16%	-5	4%	-0.2%
O=C(/C=C/c1c(F)cccc1Cl)NCCCN1CCOCC1	2%	/	-5%	-0.4%
CNC(=O)c1[nH]cnc1C(=O)Nc1ccccc1	4%	/	/	-2.5%
Nc1cc(N)nc(SCCc2ccccc2)n1	-3%	/	-45%	2.6%

The list goes on.
canonical_smiles	Rango release inh	GLA inh pH 4.5	miR-21 FLuc	Rango-impB inh
O=C(CNC(=O)Cc1cccc2ccccc12)NCc1ccc(F)cc1	-11%	/	-4%	-1.2%
NC(=O)C1CCN(c2ccc(C(F)(F)F)cn2)CC1	-10%	5[21.1 µM]	-18%	0.7%
O=C(CCC1CCCC1)N1CCN(C(=O)c2cccnc2)CC1	-1%	-4	-1%	-2.6%
O=C1CCC(=O)N1CCCCCc1nc(-c2ccccc2)no1	-5%	-2	-33%	-0.4%
COc1ccc(N(C)C(=O)c2cc3c(s2)-c2ccccc2S(=O)(=O)C3)cc1	11%	2	3%	-0.7%
COCCn1c(N)c(N(Cc2ccccc2)C(=O)C2CCCCC2)c(=O)[nH]c1=O	0%	-6	0%	-2.1%
CC(=O)c1cccc(Nc2nc3ccccc3n3cnnc23)c1	2%	/	-23%	-0.4%
COc1nnc(-c2ccc(N3CCOCC3)c(NC(=O)c3ccccc3)c2)c2ccccc12	-5%	-3	-8%	-4.7%
Cc1oc(-c2cccc(Cl)c2)nc1CSc1nc2c(c(=O)[nH]1)CCC2	-9%	6	-7%	0.4%
CN(C(=O)COC(=O)CSc1ccc(C(N)=O)cc1[N+](=O)[O-])C1CCS(=O)(=O)C1 (stereo unspecified)	51%	/	/	0.3%

(listing goes on)
canonical_smiles	Rango release inh	GLA inh pH 4.5	miR-21 FLuc	Rango-impB inh
COc1ccc2c(-c3cnc(N4CCOCC4)nc3)c(-c3ccc(S(C)(=O)=O)cc3)sc2c1	-13%	/	/	?
O=C(COc1ccc2ccc(=O)oc2c1)Nc1ccc(CN2CCOCC2)cc1	1%	/	1%	1.4%
O=C(Nc1ccc(F)cc1F)N1CCCN(CCOc2ccccc2)CC1	-4%	-2	6%	-2.2%
O=c1[nH]c2ccc(S(=O)(=O)NCc3ccccc3)cc2[nH]1	-13%	-9	-2%	0.6%
O=C(c1ccco1)N1CCN(/C(=N/S(=O)(=O)c2cccs2)c2ccccc2Cl)CC1	4%	-4	-11%	2.0%
O=C(Nc1ccc2nc(SCc3ccc(Cl)cc3)sc2c1)c1ccccc1C(=O)N1CCOCC1	5%	2	2%	-0.1%
C=CCc1cc(C)ccc1OCCCn1ccnc1	12%	/	1%	1.1%
Cc1nc(SCC(=O)N2CCN(c3ccccc3)CC2)c2oc3ccccc3c2n1	-10%	?	-3%	0.1%
Cc1ccc(S(=O)(=O)CC(=O)N2CCN(c3ccccc3F)CC2)cc1	-5%	/	-1%	2.8%
Cc1ccc(Nc2nc3ccccc3s2)c(C)c1	-8%	-8	-31%	0.2%

Going on with the list.
canonical_smiles	Rango release inh	GLA inh pH 4.5	miR-21 FLuc	Rango-impB inh
COc1cccc(N2CC(C(=O)Nc3nnc(SCc4cccnc4)s3)CC2=O)c1 (stereo unspecified)	-5%	2	-2%	-0.4%
CCC(=O)Nc1c(C(=O)Nc2cccc(OC)c2)oc2ccccc12	-2%	-4	-33%	-4.7%
COC(=O)c1cc(=O)cc(C(=O)OC)o1	0%	2	-4%	1.3%
N#CCc1ccc(OC(=O)c2cnccc2C(F)(F)F)cc1	3%	/	-3%	-3.4%
CC(C)(C)OC(=O)C[C@H]1C/C=C\C[C@H](CC(=O)N[C@H](CO)Cc2ccccc2)C(=O)N[C@H](Cc2ccccc2)COC1=O	-11%	/	/	1.7%
CCC(=O)Nc1ccc(C(=O)Nc2cccnc2)cc1	0%	1	-30%	1.3%
Cc1cc(C)nc(Nc2ncc(O)n2-c2ccc(Br)cc2)n1	-6%	2	-5%	0.3%
CCOc1c2ccccc2nn1CCOC	-19%	/	/	-4.3%
S=c1[nH]nc(-c2ccc(Cl)cc2)n1/N=C/c1cccs1	0%	1	-2%	1.8%
Cc1nnc(NC(=O)c2ccccc2NC(=O)c2ccccc2)s1	18%	5	5%	5.2%

(more compounds)
canonical_smiles	Rango release inh	GLA inh pH 4.5	miR-21 FLuc	Rango-impB inh
CCOc1ccc(C2CC(c3ccccc3C)n3ncnc3N2)cc1 (stereo unspecified)	-6%	-1	6%	-1.8%
CCN(C(=O)COC(=O)c1cc(-c2cccc3ccccc23)nc2ccccc12)C1CCS(=O)(=O)C1 (stereo unspecified)	1%	-5	-4%	-0.4%
COc1ccccc1C(=O)Nc1nc2nc(-c3ccccc3)cc(=O)n2[nH]1	5%	3	3%&-1%	0.8%
Cc1nccn1C[C@@H]1CCc2c(c3ccccc3n2C)C1=O	15%	-5	1%	-0.4%
Cc1cc(C(=O)Cn2cc(C(F)(F)F)ccc2=O)c(C)n1-c1ccccc1	-14%	-19	11%	3.6%
Cc1ccc(S(=O)(=O)NC(=O)Nn2c(C)nnc2C)cc1	29%	-4	-4%	5.2%
CSc1ccccc1OCc1cc(C(=O)NC(C)c2cnn(C)c2)no1 (stereo unspecified)	?	/	-13%	0.3%
CCOc1ccccc1-c1nc2c(C(C)(C)C)nn(C)c2c(=O)[nH]1	/	8	0%	/
COc1cc2c(cc1OC)C(c1cc3ccccc3oc1=O)=NC(C)(C)C2	3%	/	30%	0.2%
CCOc1cccc(CN2CCC(N3CCC(C(=O)NCC4CCCO4)CC3)CC2)c1 (stereo unspecified)	-2%	/	1%	-1.8%

Further structures.
canonical_smiles	Rango release inh	GLA inh pH 4.5	miR-21 FLuc	Rango-impB inh
Clc1ccc(C=Cc2ccccn2)cc1	0%	/	/	1.0%
CC(=O)c1cccc(NC(=O)CSc2ccc(-c3sc(C)nc3C)nn2)c1	12%	/	20%	-2.5%
CCN(CC)S(=O)(=O)c1cccc(NC(=O)COC(=O)/C=C/c2ccco2)c1	-5%	-10	3%	-3.3%
CC(=O)Oc1ccc(/C=C2/CCc3ccccc3C2=O)cc1	-26%	-1	15%	-1.6%
CCN(CC(=O)Nc1ccccc1C(F)(F)F)C(=O)c1oc2ccc(OC)cc2c1C	-18%	/	/	-2.5%
CCOC(=O)N/N=C/c1cc(OC)c(O)c(OC)c1	0%	-2	-2%	1.0%
Cn1c2ccc(F)cc2c2nnc(SCC(=O)Nc3cccc(O)c3)nc21	8%	/	-46%	-5.7%
O=C(CN1CCCc2ccccc21)NC(=O)NCc1ccccc1	-7%	-2	-6%	1.6%
Cc1cc(C(=O)N(C)CC(=O)Nc2cccc(F)c2)no1	13%	/	/	0.3%
CC(C)CCn1c(=O)c2sccc2n2c(CCCC(=O)N3CCN(c4ccccn4)CC3)nnc12	-5%	/	0%	-1.2%

(more compounds)
canonical_smiles	Rango release inh	GLA inh pH 4.5	miR-21 FLuc	Rango-impB inh
COCCCn1c(SCC(=O)Nc2ccc(NC(=O)c3ccco3)c(OC)c2)nc2ccccc2c1=O	1%	-29	-18%	1.1%
COc1cccc(NC(=O)Cn2c3ccccc3c3nc4n(c(=O)c32)CCS4)c1	-2%	4	-18%	0.8%
COc1ccc(OC)c(NC(=O)C2=C(C)Nc3ncnn3C2c2cccs2)c1 (stereo unspecified)	-8%	-8	-6%	-2.3%
COc1ccccc1NC(=O)Cc1noc(CSc2cccc[n+]2[O-])n1	-5%	-2	-2%	0.2%
O=C(CCc1c[nH]c2ccccc12)NCc1cccc(Cl)c1	-1%	/	-3%	-1.4%
Cc1nonc1CN(C)C(=O)CC1C(=O)NCCN1Cc1c(F)cccc1Cl (stereo unspecified)	1%	8	1%	4.8%
COc1cccc(C2CC(C(F)(F)F)n3nc(C(=O)NCc4cccnc4)cc3N2)c1 (stereo unspecified)	0%	7	-5%	-1.4%
O=C(OCC#CCSc1nnc(-c2cccc3ccccc23)o1)c1ccco1	16%	6	-17%	-1.5%
CCC1Oc2ccccc2N(CC(=O)NCc2cccs2)C1=O (stereo unspecified)	11%	-17[21.1 µM]	-6%	-0.4%
CCc1nnc(NC(=O)Cc2cc(OC)c(OC)c(OC)c2)s1	2%	0	2%	0.5%

Other structures.
canonical_smiles	Rango release inh	GLA inh pH 4.5	miR-21 FLuc	Rango-impB inh
CC[N+]1(CC)CC2CCC(C)(C1)C2(C)C (stereo unspecified)	-21%	-8	-4%	-0.9%
CN(CC(=O)Nc1ccc(OC(F)(F)F)cc1)C(=O)Cc1ccc2c(c1)CCC2	0%	/	/	0.0%
O=C(Nc1ccccc1N1CCOCC1)C1=NN(c2ccccc2)C(=O)CC1	-20%	/	/	-2.4%
NCCCC[C@@H]1NC(=O)[C@H](CCC(=O)O)NC(=O)c2cc([N+](=O)[O-])cc(I)c2SC[C@@H](C(=O)NCC(N)=O)NC1=O	32%	-1	0%	-1.3%
COc1ccccc1/C=C(/C(=O)OCC(=O)Nc1ccc(N(C)C)cc1)c1ccccc1	-2%	-12	-6%	4.1%
COC(=O)C1=C(C)Nc2c(c(=O)n(C)c(=O)n2C)C1c1cccnc1 (stereo unspecified)	-8%	-2	-2%	-2.6%
CC1CCCC(NC(=O)COC(=O)COc2ccc(Br)cc2)C1C (stereo unspecified)	-6%	/	/	-0.5%
CC1C(Br)C(=O)NC(=O)N1Cc1ccccc1 (stereo unspecified)	33%	1	0%	2.4%

Some of the entries so far, with values under each structure.
Below each SMILES – Rango release inh | GLA inh pH 4.5 | miR-21 FLuc | Rango-impB inh
> CN(CC(=O)Nc1ccc(OC(F)(F)F)cc1)C(=O)Cc1ccc2c(c1)CCC2
    0% | / | / | 0.0%
> O=C(Nc1ccccc1N1CCOCC1)C1=NN(c2ccccc2)C(=O)CC1
    -20% | / | / | -2.4%
